SARS PLpro yeast – blocks SARS-CoV papain-like protease in a yeast assay. S. cerevisiae expressing SARS-CoV PLpro, growth rescue; control for the full effect not named in the record. Potency, µM (highest dose often 32.9 µM), inactives show at the top dose activity, positive = growth rescue. actives 0.19% (n = 330,000). AID 485353; active means well fitted rising curve with a large enough effect; inconclusive means small, poorly fitted or top-dose-only effect; inactive means no such curve, though single readings can be large or run the other way; also: 0% is about no effect; nearly all actives have a fitted effect of over 55% in size; growth read by luminescence after 48 h
NS1 function inh – blocks influenza NS1 protein function; S. cerevisiae slowed by influenza A NS1, growth recovery by OD600; Potency, µM (highest dose often 46.1 µM), inactives show at the top dose activity, positive = more growth; actives 0.4% (n = 270,000); active means well fitted rising curve with a large enough effect; inconclusive means small, poorly fitted or top-dose-only effect; inactive means no such curve, though single readings can be large or run the other way; also: nearly all actives have a fitted effect of over 50% in size
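Growth recovery, yeast-based: influenza A NS1 expressed in S. cerevisiae causes slow growth, and suppressors are detected by OD600. The parent strain without NS1 is used as positive control.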
RE007 growth inh – less growth of the S. pombe RE007 Vpr strain. S. pombe RE007 Vpr strain, BacTiter-Glo ATP luminescence, 24 h; control for the full effect not named in the record. Potency, µM (titrated, usually from 92.2 µM), inactives show top-dose activity change, negative = less growth. actives 0.21% (n = 360,000). AID 651644; active = well fitted falling curve with a large enough effect; inconclusive = small, poorly fitted or top-dose-only effect; inactive = no such curve, though single readings can be large or run the other way;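 also: % is scaled to controls: 0 for no effect and ±100 for the full control effect; nearly all actives have a fitted effect of over 50% in size; the assay follows cell death caused by Vpr and the record does not say whether a fall means rescue or toxicity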
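Fission yeast RE007 carrying one integrated HIV-1 vpr copy, seeded at OD 0.01 in PMG+AL medium with 23 nL pinned compound. Grown 24 h at 30 degrees; viability read by BacTiter-Glo luminescence after 5 min.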
2A StopGo – FMDV 2A StopGo reporter, luciferase signal | human cells with a luciferase reporter of 2A StopGo recoding; control for the full effect not named in the record | Potency, µM (doses to about 57.9 µM), for the others: at the top dose signal change, negative = less light | actives 1.2% (n = 410,000) | AID 1159524; active = well fitted falling curve with a large enough effect; inconclusive = small, poorly fitted or top-dose-only effect; inactive = no such curve, though single readings can be large or run the other way; tested in HEK293T cells; also: % is scaled to controls: 0 for no effect and ±100 for the full control effect; nearly all actives have a fitted effect of over 45% in size; luciferase light after 4 h
Marburg entry inh – blocks Marburg virus binding to or entry into cells. actives 1.8% (n = 300,000). Potency, µM (titrated, usually from 37.8 µM), for the others: at the top dose activity change, negative = inhibition, usual class: inhibitors. Marburg virus pseudotyped entry inhibition, cell reporter; control for the full effect not named in the record; about a third of the inactives were read at about 46 µM; active = well fitted inhibition curve with a large enough effect; inconclusive = small, poorly fitted or top-dose-only effect, or effect the other way; inactive = flat fitted curve, though single readings scatter; tested in HEK293 cells; about a fifth of its hits are not listed in these tables; also: % is scaled to controls: 0 for no effect and ±100 for the full control effect; luciferase read-out
Cruzain Triton – blocks cruzain activity in presence of Triton detergent. P25779. Potency, µM, inactives show max response, negative = inhibition, hits mostly inhibitors. actives 0.43% (n = 200,000). purified cruzain, Z-FR-AMC fluorescence, 0.01% Triton;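 also: plate controls were neutral wells for no effect and buffer without enzyme for full effect; nearly all actives have a fitted effect of over 40% in size; top concentration of the series not given in the record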
Target sequence (P25779 123-467 limits assumed): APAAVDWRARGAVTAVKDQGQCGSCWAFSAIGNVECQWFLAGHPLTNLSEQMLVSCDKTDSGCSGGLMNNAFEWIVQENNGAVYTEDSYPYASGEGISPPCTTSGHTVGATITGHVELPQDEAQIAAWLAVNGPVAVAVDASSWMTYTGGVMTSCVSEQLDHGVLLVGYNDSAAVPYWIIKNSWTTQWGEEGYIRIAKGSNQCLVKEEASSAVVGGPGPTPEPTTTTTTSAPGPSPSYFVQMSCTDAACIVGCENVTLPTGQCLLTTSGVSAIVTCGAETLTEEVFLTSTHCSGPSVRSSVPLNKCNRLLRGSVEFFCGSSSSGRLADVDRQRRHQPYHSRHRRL
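Z-FR-AMC hydrolysis (2 uM substrate) by cruzain (1.5 nM) monitored kinetically at ex 360/em 450 nm after 15 min room-temperature compound exposure; 0.01% Triton X-100, pH 5.5, 5 mM DTT.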
Lassa entry inh – inhibitors of Lassa virus binding or cell entry; actives 1.2% (n = 300,000); AID 540256; Lassa virus pseudotype entry inhibition, cell reporter; control for the full effect not named in the record; Potency, µM (doses to about 37.9 µM), for the others: at the top dose activity change, negative = inhibition, most hits filed as inhibitors; active means well fitted inhibition curve with a large enough effect; inconclusive means small, poorly fitted or top-dose-only effect, or effect the other way; inactive means flat fitted curve, though single readings scatter; tested in HEK293 cells; also: % is scaled to controls: 0 for no effect and ±100 for the full control effect; nearly all actives have a fitted effect of over 50% in size; luciferase read-out
Cruzain noTriton – blocks cruzain activity in detergent-free assay; P25779; purified cruzain, Z-FR-AMC fluorescence, no detergent; Potency, µM, without a hit: max response, negative = inhibition, most hits filed as inhibitors; actives 2.3% (n = 200,000); AID 1476;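 also: plate controls were enzyme without inhibitor for no effect and buffer without enzyme for full effect; nearly all actives have a fitted effect of over 40% in size; top concentration of the series not given in the record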
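Purified cruzain at 1.5 nM, pre-incubated 15 min with compound at room temperature in 100 mM sodium acetate pH 5.5, 5 mM DTT, 0.00005% Triton X-100. Reaction started with 2 uM Z-FR-AMC; AMC fluorescence increase over 60 s gives rate.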
Starred values were filed as active, the others as inactive; ? = inconclusive; . = not tested or not shown; & = joins results of further samples; [ ] = remark or other dose. Unless noted, calls follow the shape of the dose curve; as a rule, active = well fitted curve in the direction sought with a large enough effect; inconclusive = small, poorly fitted or top-dose-only effect, or another doubt; inactive = no such curve, though single readings can be large; an effect the other way counts as inactive or inconclusive. Potency is read from the fitted curve at half-maximal effect.

SMILES | SARS PLpro yeast | NS1 function inh | RE007 growth inh | 2A StopGo | Marburg entry inh | Cruzain Triton | Lassa entry inh | Cruzain noTriton
Cc1ccc(-n2nnnc2SCc2nc3sc(C)c(C)c3c(=O)[nH]2)cc1 | 5% | 7% | -7% | -6% | 0% | -0.9% | 0% | ?
CN1CCC(=NNC(=O)CN(c2ccc([N+](=O)[O-])cc2)S(=O)(=O)c2ccccc2)CC1 | -7% | -51% | 5% | 1% | ? | . | 0%[46.1 µM] | .
NC(=O)c1nn(-c2cccc(Cl)c2)c(=O)cc1O | -8% | 15% | 18% | 6% | ? | 1.5% | -18% | 0%
CC(Oc1ccc(Cl)cc1Cl)C(=O)/C=C/N(C)C (stereo not given) | -25% | -30% | -3% | -11% | ? | -5.1% | -18% | 8%
O=C(Nc1ccc(Cl)cc1)N1CCN(c2ncccn2)CC1 | -1% | -1% | -11% | -2% | -12%[46.1 µM] | . | ? | .
Cc1ccc(-n2c([C@@H]3C[C@H]3c3ccccc3)n[nH]c2=S)cc1 | -10% | 25% | 15% | 6% | 10% | -5.3% | -6% | 0%
CCOc1ccc2nc3c(cc2c1)CN(CCOC)C(=NC)S3 | 9% | -3% | -2% | 0% | 7% | -1.8% | 13% | -9%
O=C(NCCCn1ccnc1)c1cccc(S(=O)(=O)Nc2ccc(F)cc2)c1 | 1% | . | 0% | 82%[activator] | ? | . | 11% | .
Cn1c(NC(=O)C[n+]2cc(-c3ccc(F)cc3)n3c2CCC3)cc(=O)n(C)c1=O | 0% | -8% | ? | -15% | -5% | 1.1% | -8% | -11%
CC(C)c1nc2oc3ccccc3c(=O)c2c(=O)n1-c1ccccc1 | -17% | -47% | -9% | 43%[activator] | 10% | 1.2% | 2% | -3%
CCC(Sc1nc(-c2ccccc2)c(C#N)c(=O)[nH]1)C(=O)Nc1cc(C)on1 (stereo not given) | 5% | 7% | 12% | . | -15% | -6.8% | 13% | -1%
COC(=O)CCCC1=CC2=CC(=O)C(C)(OC(=O)c3cccs3)C(=O)C2=CN1CCCCO (stereo not given) | -1% | -5% | 3% | -7% | 35%&35%[14.2 µM] | . | . | .
CSCCC(NC(N)=O)C(=O)N(C)CC(=O)Nc1cc(C)ccc1C (stereo not given) | -2% | 1% | 2% | -8% | 17% | 2.7% | -2% | -2%
CCOC(=O)C1C(=O)N(C)C2(C)CC1c1ccccc1O2 (stereo not given) | 3% | -2% | -12% | -22% | 9% | 3.1% | 13% | -3%
COc1cc(OC)c(NC(=O)CCn2cnc3onc(-c4ccc(F)cc4)c3c2=O)cc1Cl | . | . | . | ? | . | -3.5% | ? | 2%
CC(C)(C)C(=O)NC1CC2CCCC(C1)N2C(=O)Nc1cccc(Cl)c1 (stereo not given) | 12% | ? | 4% | -10% | . | . | . | .
O=C(NCC1CCN(Cc2cccc(Cl)c2)CC1)Nc1ccc(F)c(Cl)c1 | . | . | . | ? | ? | -3.7% | ? | -16%
Cc1ccc(NS(=O)(=O)N2CCOCC2)cc1Cl | -3% | 1% | 5% | 14% | . | . | . | .
CC(C)COC(=O)NCC12C=CC(O1)C1C(=O)N(c3ccc(Cl)cc3)C(=O)C12 (stereo not given) | -18% | -135% | 1.6µM* | 0% | 1% | 3.9% | 12% | -14%
CCOC(=O)c1ccc(Nc2c(-c3ccc(OC)cc3)nc3nc[nH]n23)cc1 | . | . | . | ? | . | -6.5% | ? | 20%
O=C(OCC(=O)N1CCOCC1)c1cc(-c2ccccc2)nc2ccccc12 | -1% | . | 27% | 3% | ? | . | -1%[46.1 µM] | .
O=c1c2cc(Cl)ccc2nc(-c2ccc(Cl)c(Cl)c2)n1O | 0% | 5% | 12% | -15% | -1% | . | . | .
COc1ccc(C(=O)CN(C(=O)c2ccc(Cl)cc2)N2C(=O)c3ccccc3C2=O)cc1 | 3% | 15% | -13% | 14% | ? | -0.2% | 0% | -29%
CCCNC(=O)OCc1cccnc1Sc1ccc(C)cc1 | -11% | . | 12% | 46%[activator] | ? | . | 10µM* | .
COc1ccc(S(=O)(=O)n2nc(-c3ccco3)nc2NCc2ccc(C(C)C)cc2)cc1 | . | . | . | 18% | 5%[46.1 µM] | -4.7% | 18%[46.1 µM] | 0%
CCOC(=O)Nc1ccc2c(c1)N(C(=O)N(C)C)c1ccccc1CC2 | -31% | -14% | 2% | -25% | -20% | 0.9% | -10% | 13%
CSc1nsc(SC)c1NC(=O)OCC1CCCO1 (stereo not given) | 1% | 2% | -5% | -12% | -5% | 4.7% | 10% | 3%
COc1nc(OCCNS(=O)(=O)c2ccc(C)cc2)nc(N(C)C)n1 | 0% | -10% | 10% | 2% | . | . | . | .
CCCOc1ccc([N+](=O)[O-])cc1C1NC(=S)NC(c2ccccc2)=C1C(=O)OCC (stereo not given) | 1% | ? | 3% | -20% | ? | 0.5% | ? | -30%
Cc1onc(-c2ccccc2)c1C(=O)N1CCC2(CC1)OCCO2 | -2% | 1% | 3% | -3% | -4% | -2.6% | 9% | -4%

Among those listed so far, two have a thiophene ring, fused or not:
SMILES | SARS PLpro yeast | NS1 function inh | RE007 growth inh | 2A StopGo | Marburg entry inh | Cruzain Triton | Lassa entry inh | Cruzain noTriton
Cc1ccc(-n2nnnc2SCc2nc3sc(C)c(C)c3c(=O)[nH]2)cc1 | 5% | 7% | -7% | -6% | 0% | -0.9% | 0% | ?
COC(=O)CCCC1=CC2=CC(=O)C(C)(OC(=O)c3cccs3)C(=O)C2=CN1CCCCO (stereo not given) | -1% | -5% | 3% | -7% | 35%&35%[14.2 µM] | . | . | .

Pulled one by one from the list above:
SMILES | SARS PLpro yeast | NS1 function inh | RE007 growth inh | 2A StopGo | Marburg entry inh | Cruzain Triton | Lassa entry inh | Cruzain noTriton
CC(C)COC(=O)NCC12C=CC(O1)C1C(=O)N(c3ccc(Cl)cc3)C(=O)C12 (stereo not given) | -18% | -135% | 1.6µM* | 0% | 1% | 3.9% | 12% | -14%
Cc1ccc(NS(=O)(=O)N2CCOCC2)cc1Cl | -3% | 1% | 5% | 14% | . | . | . | .
Cc1onc(-c2ccccc2)c1C(=O)N1CCC2(CC1)OCCO2 | -2% | 1% | 3% | -3% | -4% | -2.6% | 9% | -4%
CCOC(=O)c1ccc(Nc2c(-c3ccc(OC)cc3)nc3nc[nH]n23)cc1 | . | . | . | ? | . | -6.5% | ? | 20%

Later entries
SMILES | SARS PLpro yeast | NS1 function inh | RE007 growth inh | 2A StopGo | Marburg entry inh | Cruzain Triton | Lassa entry inh | Cruzain noTriton
Cc1ccc(C(=O)O)cc1-c1ccc(/C=C2\SC(=O)N(CC(=O)Nc3ccccc3)C2=O)o1 | -1% | 17% | -4% | -7% | 22%[46.1 µM] | . | -4% | .
Cc1cccc2cc(C(c3nnnn3C(C)(C)C)N3CCN(C(=O)c4ccco4)CC3)c(=O)[nH]c12 (stereo not given) | 2% | -19% | -4% | . | -18% | -7.8% | 11% | ?
CCN1CCN(c2c(C=O)c(Cl)nc3ccc(OC)cc23)CC1 | 0% | -11% | -6% | -1% | . | . | . | .
COc1ccc(CNC(=O)COc2cc(=O)n(C)c3ccccc23)cc1 | -5% | . | 7% | 2% | 18%[46.1 µM] | . | -1% | .
CCC(=O)Oc1c(Sc2ccc(Cl)cc2)c(C)nn1C(C)(C)C | . | . | . | -26% | -1%[46.1 µM] | -6.6% | -11%[46.1 µM] | 4%
O=C(Nc1cccc(NC(=O)c2ccc(Cl)cc2Cl)c1)c1cccnc1 | 1% | -1% | 16% | ? | ? | . | . | .
Cc1[nH]oc(=O)c1N=Nc1ccccc1 | -80% | -48% | -19% | -23% | 5% | -2.8% | -11% | 17%
Cn1c(=O)[nH]c(=O)c2c1nc(N1CCOCC1)n2CCCSc1ncccn1 | 3% | -10% | -6% | -20% | -17% | 2.1% | 7% | 3%
COc1ccc(S(=O)(=O)O)cc1P(=O)(c1ccccc1)c1ccccc1 | 5% | 3% | -1% | -2% | 8%[46.1 µM] | . | ? | .
Cc1ccc(CSCCNC(=O)/C=C/c2ccc(Cl)cc2)cc1 | 5% | 3% | 1% | 28% | 7% | 3.8% | 8% | 13µM*
COc1ccc(OC)c(NC(=O)C2CCCN2C(=O)C2CCC(C)CC2)c1 (stereo not given) | -3% | -3% | 16% | -28% | . | 1.0% | . | -18%
O=C(COC(=O)Cc1cccc(C(F)(F)F)c1)Nc1ccccc1 | -1% | -22% | -16% | -2% | 2% | -6.3% | 18% | -1%
COc1ccc(-c2[nH]nc3c2C(c2ccsc2)C(C#N)=C(N)O3)cc1 (stereo not given) | 0% | 17% | 18% | 7% | 4% | -11% | 7% | -3%
CCOc1ccc(/C=C2\SC(=O)N(CCNC(=O)C3COc4ccccc4O3)C2=O)cc1OC (stereo not given) | 0% | 8% | -18% | ? | ? | -5.0% | ? | 29%
COc1cc2c(cc1OC)CN(C(=O)c1nn(Cc3ccccc3)c(=O)c3ccccc13)CC2 | -27% | . | 14% | -26% | ? | . | ? | .
O=C(COC(=O)CCC(=O)c1ccc(F)cc1)NCc1ccc(Cl)cc1 | -4% | . | -1% | -5% | -5%[46.1 µM] | . | -3%[46.1 µM] | .
O=C(Cn1cc([N+](=O)[O-])cn1)Nc1ccn(Cc2c(F)c(F)cc(F)c2F)n1 | 6% | 11% | 0% | -3% | 0% | -5.1% | 2% | 0%
COc1ccc(N2CCN(c3ncccc3C#N)CC2)cc1 | 16% | -2% | -19% | -4% | ? | -4.1% | ? | -2%
Cc1cc(C)c(NC(=O)C2CCCN2CCOC(=O)c2cccc([N+](=O)[O-])c2)c(C)c1 (stereo not given) | -1% | -42% | 3% | -7% | -5% | -1.9% | 0% | 1%
Cc1nn(-c2ccccc2)c(C)c1NC(=O)COC(=O)c1ccc(Cl)c(N)c1 | -1% | . | -20% | -24% | ? | . | 28% | .
CSc1ccccc1-c1nnc(-c2ccc(Cl)cc2Cl)o1 | -15% | -9% | 24% | 22% | 25% | -7.2% | -15% | -2%

Screens from PubChem BioAssay.

Rows were taken by chance, and some 4.8% of all compounds hit somewhere here.
